A647 autofl: compound autofluorescence in A647 spectral region; Compound fluorescence, A647 channel (570/671 nm), Tris buffer; max dye-equivalent concentration, M; 59,000 tested, under 10 active; AID 592; active means above 1 µM dye equivalent; inconclusive means 0.1 to 1 µM; inactive means 0.1 µM or less;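 further: values scaled relative to a standard on each plate; highest value over a series up to 38 µM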
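Spectral profiling of library compounds in pH 8.0 Tris: 15 min room-temperature incubation, single ex/em pair (570/671 nm), response normalized to Alexa 647 equivalents.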
TSHR agonist: TSH receptor (human) agonism; P16473; 0.48% of 73,000 active; HEK293-CNG-TSHR cells (CNG channel as cAMP sensor), membrane potential dye, cAMP; Potency, µM (doses to about 57.1 µM), for inactives: at the highest dose activation, usual class: activators; active = well fitted activation curve of enough size with the parental cells flat; inconclusive = any curve in the parental cells; inactive = parental cells flat and receptor cells flat or falling; further: potency means the concentration at half of the fitted maximal effect; % of control where 0% means no effect; weak receptor curves with flat parental cells got no call and are not listed
Target sequence (P16473 whole entry, looked up): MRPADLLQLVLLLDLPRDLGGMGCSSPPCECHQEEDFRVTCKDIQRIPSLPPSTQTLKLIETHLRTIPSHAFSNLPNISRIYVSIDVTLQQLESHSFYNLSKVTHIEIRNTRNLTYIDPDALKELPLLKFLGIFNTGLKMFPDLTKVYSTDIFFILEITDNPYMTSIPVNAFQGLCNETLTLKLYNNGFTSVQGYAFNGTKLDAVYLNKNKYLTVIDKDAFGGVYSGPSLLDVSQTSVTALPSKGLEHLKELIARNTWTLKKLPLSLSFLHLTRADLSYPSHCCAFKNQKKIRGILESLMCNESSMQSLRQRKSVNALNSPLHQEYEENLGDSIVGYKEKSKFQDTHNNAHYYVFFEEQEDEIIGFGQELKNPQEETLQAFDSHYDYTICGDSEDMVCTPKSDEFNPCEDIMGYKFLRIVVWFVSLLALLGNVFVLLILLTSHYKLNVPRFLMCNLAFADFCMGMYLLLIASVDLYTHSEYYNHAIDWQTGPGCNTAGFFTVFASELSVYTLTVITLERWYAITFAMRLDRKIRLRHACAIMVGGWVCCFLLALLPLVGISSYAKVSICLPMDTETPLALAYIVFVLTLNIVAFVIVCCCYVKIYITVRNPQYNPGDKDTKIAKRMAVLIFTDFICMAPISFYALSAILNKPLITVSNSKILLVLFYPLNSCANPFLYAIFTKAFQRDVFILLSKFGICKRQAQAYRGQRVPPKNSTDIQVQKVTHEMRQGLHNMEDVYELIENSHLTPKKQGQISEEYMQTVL
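cAMP rise detected as CNG-channel membrane depolarization by fluorescent dye (emission 590 nm), 30 min after compound, following 60 min dye loading containing 100 uM RO 20-1724 at room temperature. Cells: TSHR/CNG HEK 293, with parental CNG HEK 293 as control.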
Resorufin autofl: resorufin region autofluorescence; Compound fluorescence, resorufin region 547/598 nm, buffer; hits give high values; 0.04% of 59,000 active; max dye-equivalent concentration, M; active = above 10 nM dye equivalent; inconclusive = 1 to 10 nM; inactive = 1 nM or less; a few of its hits are not listed in these tables; further: highest value over a series up to 38 µM
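Compounds in 100 mM Tris, pH 8.0, incubated 15 min at room temperature, then fluorescence read at 547 nm excitation/598 nm emission. Signal converted to dye-equivalent concentration via an on-plate six-point resorufin standard curve, per compound concentration.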
A488 autofl: A488 region autofluorescence; compound autofluorescence, A488 spectral region, dye equivalency; hits give high values; 0.1% of 59,000 active; max dye equivalency, M; AID 591; active = above 10 nM dye equivalent; inconclusive = 1 to 10 nM; inactive = 1 nM or less; about half of its hits are not listed in these tables;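 further: highest value over a series up to 38 µM; compound alone in buffer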
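Compound autofluorescence was read in 100 mM Tris pH 8.0 after 15 min at room temperature, ex 480 nm/em 540 nm. Intensities were converted to A488 dye-equivalent concentration using an on-plate six-point A488 standard curve.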
AID923: qHTS Assay for Allosteric/Competitive Inhibitors of Caspase-1: Spectroscopic Profiling in AFC Spectral Region | compound fluorescence, AFC spectral region (405/520 nm); almost no hit is shown here | Potency, µM (highest dose often 57.5 µM), for inactives: at the top dose fluorescence increase, actives largely listed as activators | 1.1% of 75,000 active; active means well fitted activation curve with a large enough effect; inconclusive means small, poorly fitted or top-dose-only effect;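 further: potency means the concentration at half of the fitted maximal effect; 0% is about no effect; scaled to a free AFC standard on each plate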
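Compound autofluorescence profiled at 405 nm ex/520 nm em during kinetic caspase 1 run (50 nM enzyme, 5 uM Ac-WEHD-AFC, HEPES pH 7.5, 10 mM DTT). Titration up to 57 uM; baseline from regression intercept, normalized to AFC standard curve.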
Active calls of the source: *; i = inactive; ? = inconclusive; / = no result given; & = joins results of further samples; [ ] = dose if it differs, or a comment.

SMILES	A647 autofl	TSHR agonist	Resorufin autofl	A488 autofl	AID923
COc1ccc(S(=O)(=O)N[C@H](C(=O)O)C(C)C)cc1	1e-09	0%	i	i	1.8%
N#Cc1nc(COc2ccc(F)cc2)oc1N1CCC(Cc2ccccc2)CC1	1e-09	?	i	i	-1.3%
CCOc1ccc(-c2nc(-c3ccncc3)no2)cc1OCC	5.3e-09	7%	i	i	-0.4%
CCc1ccc(N2CC(C)Cn3c2nc2c3c(=O)n(CCN3CCOCC3)c(=O)n2C)cc1 (centres undefined)	2.5e-09	-20%	i	i	-1.4%
O=C(Oc1ccccc1)N1CCC2(CC1)CCN(c1ncccn1)CC2	4.3e-09	0%	i	i	2.4%
Cc1ccc(NC(=O)Cn2c(=O)n(CCCC(=O)NCc3ccco3)c(=O)c3ccccc32)cc1	2e-08	7%	i	i	-0.2%
O=C(CS(=O)(=O)Cc1ccccc1)Nc1ccccn1	1e-09	-12%	i	i	0.4%
FC(F)(F)c1ccccc1-c1nc(NCc2cccs2)c2ccccc2n1	1e-09	?	i	i	2.0%
CC(=O)Nc1ccc(S(=O)(=O)N(Cc2ccco2)CC2CCCO2)cc1 (centres undefined)	3e-08	20%	i	i	-2.4%
CC(=O)Nc1ccc(S(=O)(=O)Nc2nc3c(s2)CCCC3)cc1	/	8%	/	/	1.6%
c1ccc(Oc2ccccc2)cc1	/	?	/	/	0.4%
Cc1ccc(Cn2ccc(NC(=O)c3cc(CC(C)C)on3)n2)cc1	/	?	/	/	3.0%
Cn1c(SCC(=O)N2CCCC2)nc2ccccc2c1=O	5.4e-08	?	i	i	-0.3%
COc1cc(/C=C/C2=NC(=O)C(C)(C)O2)ccc1O	1e-09	7%	i	i	4.6%
Cc1cc(C)c2[nH]c(=O)c(=O)[nH]c2c1	1e-09	28%	i	i	-2.2%
CCCCn1c(CCNC(=O)CCC)nc2ccccc21	/	12%	/	/	-0.1%
CC(C)=CCC/C(C)=C/CO/N=C1/[C@H]2O[C@@H]2[C@@H](O)[C@H]2[C@H]1CCn1c(=O)n(Cc3cc4c(cc3Cl)OCO4)c(=O)n12	/	-4%[11.4 µM]	/	/	-0.8%[11.5 µM]
CC(C)(C)OC(=O)NCCc1nnc(SCc2ccccc2Cl)o1	2.2e-09	/	i	i	-0.7%
Cc1cccc(NC(=O)Nc2ccc(C#N)cc2)n1	/	1%	/	/	-1.2%
O=C1N(c2ccccc2)C2CS(=O)(=O)CC2N1c1ccc(Cl)c(Cl)c1 (centres undefined)	/	-5%	/	/	1.6%
CCC(Sc1ncccc1C(=O)OCCN1CCCC1=O)C(=O)NCc1ccco1 (centres undefined)	1e-09	6%	i	i	1.1%
COc1ccc(C(=O)Nc2c(N)nc(SCC(=O)N3CCC(C)CC3)[nH]c2=O)cc1OC	/	-2%	/	/	4.3%
c1ccc(NCCCNc2ccccc2)cc1	2e-08	-27%	i	i	-3.2%
Cc1n[nH]c(C)c1S(=O)(=O)N1CCCC(C(=O)NC2CCCCC2)C1 (centres undefined)	/	?	/	/	1.4%
O=C(Cc1ccccc1)N1CCN(C(=O)c2cccs2)CC1	4.7e-08	10%	i	i	0.1%
OCCNc1nc(OCC(F)(F)F)nc(N2CCN(C34CC5CC(CC(C5)C3)C4)CC2)n1	1e-09	28%	i	i	2.3%
Cn1cc(CNC(=O)Nc2ccc3c(c2)OCO3)cn1	3.5e-09	/	i	i	1.9%
O=C(c1ccc(S(=O)(=O)Nc2ccccc2)cc1)N1CCOCC1	7.7e-09	4%	i	i	0.0%
CCCn1nnnc1NCc1ccccc1OCc1ccc(F)cc1	2.7e-08	?	i	i	-2.7%
COc1cccc(C(=O)NCCC2=CCCCC2)c1OC	6.3e-09	16%	i	i	0.1%
COc1ccccc1CCC(=O)Nc1nc2ccccc2[nH]1	1.4e-09	?	i	i	1.0%
Cn1c(COc2ccccc2)nnc1SCCC(=O)Nc1ccccc1	3.3e-08	4%	i	i	1.8%
Cc1c(Cl)cccc1NC(=O)c1cc(-c2ccc(O)cc2)on1	/	15%	/	/	-1.7%
CC(NS(=O)(=O)c1ccc(Br)cc1)C(N)=O (centres undefined)	2.5e-08	2%	i	i	-0.7%
Cc1ccc(S(=O)(=O)N2CCN(C3CC(=O)N(Cc4ccccc4)C3=O)CC2)cc1C (centres undefined)	2e-09	5%	i	i	0.9%
COc1cccc2cc(-c3nnc(SCC(=O)Nc4cc(C(F)(F)F)ccc4Cl)n3N)oc12	1.5e-08	?	i	i	-0.5%
CC(=O)c1cccc(NC(=O)NCc2cccnc2)c1	4.4e-09	/	i	i	-0.7%
COc1ccc(OC)c(N2C(=O)C(Cl)=C(N3CCCCC3)C2=O)c1	/	14%[11.4 µM]	/	/	3.1%
COc1ccc2oc(=N)c(C(=O)Nc3ccccc3)cc2c1	4.8e-08	15%	i	i	20%
Cc1csc(NC(=O)CCc2nc3ccccc3s2)n1	1e-09	?	i	i	1.0%

The list goes on (5 carried over from the part before).
SMILES	A647 autofl	TSHR agonist	Resorufin autofl	A488 autofl	AID923
COc1cccc2cc(-c3nnc(SCC(=O)Nc4cc(C(F)(F)F)ccc4Cl)n3N)oc12	1.5e-08	?	i	i	-0.5%
CC(=O)c1cccc(NC(=O)NCc2cccnc2)c1	4.4e-09	/	i	i	-0.7%
COc1ccc(OC)c(N2C(=O)C(Cl)=C(N3CCCCC3)C2=O)c1	/	14%[11.4 µM]	/	/	3.1%
COc1ccc2oc(=N)c(C(=O)Nc3ccccc3)cc2c1	4.8e-08	15%	i	i	20%
Cc1csc(NC(=O)CCc2nc3ccccc3s2)n1	1e-09	?	i	i	1.0%
CC1Cc2ccccc2N1C(=O)CSc1nnnn1Cc1ccccc1 (centres undefined)	1e-09	11%	i	i	0.0%
Cn1c(C(=O)N2CCCCCC2)cc2c(=O)n(C)c3ccccc3c21	/	5%	/	/	-1.0%
CCc1c(C)[nH]c2c1C(=O)[C@H](CN1CCOCC1)CC2	9.1e-09	13%[25.6 µM]	i	i	3.8%[25.7 µM]
CC1(C(=O)O)CCC(C(=O)NCCc2ccccc2)C1(C)C (centres undefined)	/	-4%	/	/	1.2%
Cc1nn(Cc2ccc(F)cc2)c(C)c1NC(=O)c1cc(-c2ccco2)on1	1.2e-08	17%	i	i	0.1%
CCOc1ccc(OCC)c(NC(=O)c2ccc(CNc3c(N4CCOCC4)c(=O)c3=O)cc2)c1	6.6e-09	1%	i	i	0.5%
Clc1ccc(OCc2nnc(SCCN3CCCCC3)n2Cc2ccco2)cc1	9.2e-09	?	i	i	-0.7%
NC(=O)NO	1e-09	-64%[inhibitor]	i	i	-0.3%&1.1%
CCn1c(CNC(=O)c2ccc(OC)cc2)nnc1SCC(=O)c1ccccc1	5.9e-09	-5%	i	i	-0.6%
CCOC(=O)c1cc2sccc2n1CC(=O)N1CCCc2ccccc21	7.2e-09	?	i	i	-1.5%
Cc1nc2c(-c3ccccc3)c(C)nn2c(C)c1CCC(=O)NCc1ccco1	/	1%	/	/	3.0%
CCn1c2ccccc2c2nnc(SCC(=O)NCc3cccs3)nc21	2.4e-09	4%	i	i	-0.2%
Cn1nnnc1SCC(=O)N1CCN(C(c2ccccc2)c2ccccc2)CC1	1e-09	-3%	i	i	-1.5%
CCSc1nnc(NC(=O)c2csc3c2CCC(C)C3)s1 (centres undefined)	3.8e-08	2%	i	i	-0.8%
COc1cc(O)c(NC(C)=O)c2nonc12	/	4%	/	/	0.9%
COc1ccc(-n2c(C)cc(C(=O)CSc3nnc(-c4cccs4)o3)c2C)cc1	3.7e-08	?	i	i	1.0%
C=CCNc1sc(C(=O)C(C)(C)C)c(N)c1C#N	3.4e-08	1%	i	i	-0.6%
COc1ccccc1-c1cn(S(=O)(=O)c2ccc(F)cc2)nc1N	1.3e-09	?	i	i	0.0%
CCOCCCNS(=O)(=O)c1ccc2c(c1)CCN2C(=O)CC	1e-09	5%	i	i	-1.0%
O=C(NCCN1CCCC1)C1COc2ccccc2O1 (centres undefined)	5.9e-09	3%	i	i	-1.2%
O=C(NCCc1ccccc1)C1CC(c2ccccc2O)=NO1 (centres undefined)	4e-08	10%	i	i	0.9%
COc1ccc(-c2nn(CCC(=O)O)cc2CCC(=O)O)cc1	1e-09	-5%	i	i	-0.7%
CC1(C)CC(CCC(=O)Nc2ccccc2Cl)C(=O)O1 (centres undefined)	4e-08	5%	i	i	-0.8%
C[C@]12CC[C@@H]3c4ccc(O)cc4CC[C@H]3[C@@H]1CC[C@@H]2O	/	?	/	/	0.6%
COc1ccc(CN(CCCN2CCOCC2)S(=O)(=O)N(C)C)cc1OC	4.4e-08	5%	i	i	-1.4%
CC1(C)C=Cc2c(c3ccccc3[nH]c2=O)O1	1e-08	12%	i	i	0.8%
Cc1cn([C@H]2C[C@H](O)[C@@H](COC(N)=O)O2)c(=O)[nH]c1=O	4.1e-09	10%[11.4 µM]	i	i	0.3%[11.5 µM]
COc1ccc(-c2noc(CCCOc3ccccc3)n2)cc1OC	6.5e-09	?	i	i	1.7%
CCOC(=O)CSc1ncnc2c1cnn2-c1ccc(C)cc1	2.8e-08	-1%	i	i	-0.4%
Cc1[nH]c2ccccc2c1Cc1nnc(SCC(N)=O)o1	/	12%	/	/	15%
Clc1ccc(Cl)c2sc(N3CCOCC3)nc12	2.4e-08	14%	i	i	0.4%
Cc1cccc2cc(CN(Cc3ccc(F)cc3)Cc3nnnn3C3CCCC3)c(=O)[nH]c12	3.7e-08	?	i	i	0.7%
O=C(Nc1nnc(Cc2ccccc2)s1)c1cccs1	1.9e-09	-4%	i	i	0.0%
CCOC(=O)C(C(=O)OCC)C(C#N)c1ccccc1 (centres undefined)	3.4e-08	6%	i	i	0.2%
Cc1oc(-c2ccccc2Cl)nc1CSCC(=O)N1CCCC1	1.4e-08	1%[11.4 µM]	i	i	-0.5%
COc1ccccc1C(=O)Nc1ccc2c(c1)OCCO2	4.6e-09	?	i	i	-2.1%
CCn1c(SCC(=O)N2c3ccccc3Sc3ccccc32)nnc1-c1ccco1	2.4e-08	?	i	i	1.7%
Cc1cc(NC(=O)CCC(=O)N(Cc2cccs2)C(C(=O)NC2CCCC2)c2ccncc2)no1 (centres undefined)	1.6e-08	2%	i	i	0.3%
CCOc1ccc(C2CC(c3cccc(OC)c3OC)n3nnnc3N2)cc1Cl (centres undefined)	1.6e-08	27%	i	i	-3.5%
Cc1ccc(C2C3CSCC=C3C(C#N)=C(N)C2(C#N)C#N)cc1 (centres undefined)	1e-08	25µM*	i	i	18%
Cc1ccc(-c2cc(C(=O)N3CCN(C(=O)c4ccco4)CC3)no2)cc1	1e-09	8%	i	i	1.6%
COc1ccc(OC)c(C2/C(=C(/O)c3cnn(-c4ccccc4)c3C)C(=O)C(=O)N2CCN(C)C)c1 (centres undefined)	1e-09	/	i	i	/
CCN(CC)CCCN(Cc1cc2cc3c(cc2[nH]c1=O)OCCO3)C(=O)Nc1ccc(F)cc1	2.6e-08	9%	i	i	3.0%
CCOC(=O)n1ccc(C(=O)Nc2ccccc2F)n1	1e-09	3%	i	i	2.2%
COc1ccc(C2CC(=O)C3=C(C2)Nc2ncnn2C3c2ccccc2C)cc1 (centres undefined)	1e-09	/	i	i	0.3%
C=CCC(NCc1ccco1)c1ccc(OC)cc1OC (centres undefined)	1.3e-09	5%	i	i	1.3%
O=c1c(O)c(-c2ccccc2)oc2cc(O)cc(O)c12	1.5e-08	-23%	i	i	-2.6%
NC(=O)C(Cc1ccccc1)NS(=O)(=O)c1ccc(N2CCCC2=O)cc1 (centres undefined)	2.7e-09	/	i	i	-0.6%

Some of the compounds tested (hit frequency here may not be typical).
